From PubChem BioAssay
HNF4A DNA FP – change in binding of human HNF4A to DNA, primary screen, biochemical, fluorescence polarization, FITC-DNA; 360,000 tested, 0.3% active; Hepatocyte nuclear factor 4-alpha (Homo sapiens), P41235; activity change, % at 10 µM; 1 h; in the data active means activity change above about 30%, passing the limit was not always enough;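 further: controls were the assay level and a saturating level of protein; the project sought stronger binding though the title names inhibitors; some compounds called inactive have numbers as strong as hits; positive values seem to mean higher polarization but the record does not say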
Target sequence (P41235 whole entry, looked up): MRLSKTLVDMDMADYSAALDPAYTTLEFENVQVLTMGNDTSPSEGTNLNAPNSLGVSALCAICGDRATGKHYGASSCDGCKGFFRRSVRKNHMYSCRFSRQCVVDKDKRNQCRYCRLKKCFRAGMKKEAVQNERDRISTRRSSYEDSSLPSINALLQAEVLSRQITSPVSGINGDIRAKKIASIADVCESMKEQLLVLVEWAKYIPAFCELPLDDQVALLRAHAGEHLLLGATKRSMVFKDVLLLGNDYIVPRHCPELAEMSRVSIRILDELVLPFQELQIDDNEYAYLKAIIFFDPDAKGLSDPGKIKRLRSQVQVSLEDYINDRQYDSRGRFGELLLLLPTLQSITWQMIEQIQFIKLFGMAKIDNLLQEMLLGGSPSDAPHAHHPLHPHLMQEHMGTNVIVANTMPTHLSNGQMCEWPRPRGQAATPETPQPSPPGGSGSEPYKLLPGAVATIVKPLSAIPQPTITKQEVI
LANA-H2B inh – blockers of LANA interaction with H2A/H2B – biochemical, FP readout, HTS, primary screen; cell-free LANA-H2A/H2B peptide, fluorescence polarization; inhibition, % (no concentration beside the values); 320,000 tested, 0.6% active; AID 2629, 2010; in the data active means inhibition mostly above about 10%, no sharp cut-off; inactive means mostly below about 6.7%;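 further: stock transfer was 7.5 nL into about 10 µL; 0% = median of vehicle wells and 100% = median of positive control wells; one replicate is shown; the record names a cut of 25% in any replicate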
Vif TR-FRET – inhibitors of Vif binding to APOBEC3G peptide, primary screen, biochemical, TR-FRET, GST-Vif 1-94, biotin-A3G peptide, dose response retest (AID 1117319) | Virion infectivity factor (Human immunodeficiency virus type 1 group M subtype B (isolate … | TR-FRET GST-Vif / biotin-A3G peptide binding; higher % means a stronger effect; test concentration not given here; strong numbers were not always called active | inhibition, %; hits with a dose series show IC50 in µM | 260,000 tested, 0.57% active;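 active means above the screen mean plus three standard deviations and confirmed in dose response; inconclusive means results disagree or hit not tested in dose response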;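 further: Vif residues 1-94 fused to GST binding biotinylated APOBEC3G peptide 110-148; 0% = full assay without inhibitor and 100% = GST in place of GST-Vif; retest series ran down from 100 µM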
A1 inh – caspase 3/7 activation in MEF A1-2A-BIM cells, primary screen, A1 inhibitor project, cell-based, luminescence, HTS; Caspase-Glo 3/7 luminescence, 3 h; percent of clofoctol response, vehicle zero; caspase activation, % (test concentration not listed); 330,000 tested, 0.066% active;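 active means over half of replicate activation scores above 10%, or exactly half above 10 with the replicate mean above 10; inconclusive means replicate mean below 10 yet half the replicates above 10; inactive means over half of replicates below 10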;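 further: wells of about 30 µL received 50 nL stock; many hits fall short of the cut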
Beta2AR agonist – beta2AR agonists driving receptor internalization, primary screen, cell-based, FAP fluorogen, flow cytometry; Beta-2 adrenergic receptor (Homo sapiens), P07550; Am2.2-beta2AR cells; reference of the scale not given here; response, % (concentration not given with the values); 340,000 tested, 0.43% active; AID 504454, 2011;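 active means response above a set limit, near 3 SD of response in nonfluorescent compounds, cut at about 42% in these data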;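 further: stock transfer was 100 nL into about 11 µL; a reference agonist was the positive control; negative values mostly stem from fluorescent compounds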
UCH37 inh – inhibitors of human UCH37 deubiquitinase, primary screen, biochemical, Ub-AMC cleavage, fluorescence; purified proteasome/UCH37; inhibition, % (no concentration beside the values); 330,000 tested, 0.33% active; AID 588478, 2011;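 active means mean of two replicates above 20%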;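 further: 0% = compound-free wells with enzyme and 100% = wells lacking proteasome; stock transfer was 100 nL into about 20 µL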
Target sequence (Q9Y5K5 whole entry, looked up): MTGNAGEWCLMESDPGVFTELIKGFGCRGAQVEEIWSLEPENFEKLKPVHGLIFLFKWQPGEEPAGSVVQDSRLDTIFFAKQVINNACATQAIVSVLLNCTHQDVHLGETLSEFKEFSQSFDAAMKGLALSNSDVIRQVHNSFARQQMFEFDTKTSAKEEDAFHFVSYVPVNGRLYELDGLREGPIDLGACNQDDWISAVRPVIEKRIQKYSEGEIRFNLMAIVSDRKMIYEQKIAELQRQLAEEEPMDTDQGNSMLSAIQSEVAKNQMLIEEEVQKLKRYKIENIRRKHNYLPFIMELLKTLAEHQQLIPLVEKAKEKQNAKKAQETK
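System: Proteasome-associated human UCH37 deubiquitinase; Input: 0.15 nM proteasome in added enzyme buffer; Also added: Ub-AMC substrate from 1 µM stock; Incubation: 30 min compound-proteasome preincubation then 25 min substrate reaction, room temperature; Detection: fluorescence, ex 355 nm, em 460 nm; Read-out: % inhibition of Ub-AMC cleavage fluorescence; Benchmarks: no-proteasome and no-compound wells.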
Ecoli growth – E. coli growth inhibition, primary screen, OD600 | 330,000 tested, 0.21% active | OD600 absorbance (concentration not given with the values) | AID 1053175, 2014 | Escherichia coli growth, 23 h; stronger effect = lower value;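 active means OD600 absorbance below the run mean of sample wells minus 3.6 SD, in any replicate, cut at about 0.56 in these data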;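 further: stock transfer was 300 nL into about 60 µL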
Active calls of the source: *; ? = inconclusive; . = not tested or not shown; & = joins results of further samples.

molecule	HNF4A DNA FP	LANA-H2B inh	Vif TR-FRET	A1 inh	Beta2AR agonist	UCH37 inh	Ecoli growth
CC(C)COc1cccc(C(=O)N(C)CC(=O)Nc2cccc3ccccc23)c1	-1.2	0.7	-1.6%	-1.7	-18.9	4.7	0.729
CCCCC(CC)C(=O)Nc1cc(C(=O)NCCC)ccc1N1CCC2(CC1)CC(c1cccc(Br)c1)=NO2 (stereo not drawn)	4.5	-0.2	.	1.8	-1.0	4.6	0.734
CCCCSc1nc2sc3c(c2c(=O)n1-c1ccc(C)cc1)CCN(C)C3	11.6	-1.3	3.5%	-0.2	5.0	-22.0	0.678
COc1ccc(CCNC(=O)Cc2ccc(Cl)cc2)cc1OC	-0.5	1.4	.	-1.0	-6.3	-2.7	0.684
O=S(=O)(NC1c2cccc3cccc(c23)C1N1CCN(CCO)CC1)c1ccccc1 (stereo not drawn)	0.5	.	4.3%	.	8.6	3.0	0.727
CCOC(=O)c1[nH]c(C)c(CN(C(C)=O)c2ccc(OCC)cc2)c1C	2.0	2.5	18.3%	0.3	-14.1	3.3	0.673
Nc1nonc1C(=O)N/N=C/c1ccc(Br)o1	0.9	1.1	-9.7%	-0.6	1.2	.	.
COc1ccc(NC(=O)CSc2n[nH]c(N)n2)cc1OC	3.6	-1.5	2.9%	0.0	0.0	3.6	0.668
CS(=O)(=O)N1CCCC(C(=O)Nc2ccccc2C(F)(F)F)C1 (stereo not drawn)	0.1	1.5	.	0.0	-3.8	0.9	0.633
S=C(Nc1cccc2ccccc12)NN1CCCCCC1	-1.5	.	-6.7%	.	-3.9	-1.8	0.682
C=CCn1c(SCC(=O)NC(=O)Cc2ccccc2)nc2ccccc2c1=O	1.9	4.4	.	0.1	2.1	2.2	0.683
O=C1COc2ccc(C(=O)COC(=O)c3ccc(F)cc3Cl)cc2N1	2.4	0.1	-25.9%	0.4	-2.3	2.5	0.682
Cc1ccc(C(=O)NNC(=O)CSc2nnc3c(n2)[nH]c2ccc(C)cc23)cc1	3.6	-1.0	5.9%	-0.8	3.4	5.8	0.671
Cc1ccc(S(=O)(=O)CCc2nc3ccccc3s2)cc1	-1.2	5.6	-4.0%	0.7	-2.2	2.9	0.766
COc1ccc(CN2CCN(C(=O)c3ccc(CNS(=O)(=O)c4ccc(C)cc4)cc3)CC2)c(OC)c1OC	-2.7	-0.9	.	0.3	13.8	2.5	0.71

Next records:
molecule	HNF4A DNA FP	LANA-H2B inh	Vif TR-FRET	A1 inh	Beta2AR agonist	UCH37 inh	Ecoli growth
O=C(CCC1CCCCC1)Nc1cc(C(F)(F)F)ccc1N1CCOCC1	4.1	-4.1	2.3%	0.7	-3.1	5.0	0.702
CC(=O)Nc1c(NC(C)C)c2ccccc2oc1=O	-1.8	-3.2	-1.1%	2.1	4.7	2.2	0.649
O=C(NC(c1cccnc1)C(F)(F)F)c1cc(COc2ccc3c(c2)CCCC3)on1 (stereo not drawn)	2.1	-1.7	.	-1.4	3.1	-0.7	0.713
CCOc1ccc(/C(O)=C2\C(=O)C(=O)N(c3cc(C)on3)C2c2ccccc2OC)cc1 (stereo not drawn)	-2.8	1.0	?	-0.5	2.5	8.4	0.704
COC(=O)c1ccccc1S(=O)(=O)N(Cc1cc2ccc(OC)cc2[nH]c1=O)CC1CCCO1 (stereo not drawn)	0.4	-2.1	9.5%&0.1%	-0.2	-14.3	1.5	0.656
CCOc1ccccc1NC(=O)NNC(=O)COc1cccc(C)c1C	0.0	-0.4	.	1.2	-3.2	-0.6	0.655
O=C(NCc1ccccc1)C(=O)NCC1OCCN1S(=O)(=O)c1ccc2c(c1)OCCO2 (stereo not drawn)	-1.6	5.0	29.4%	0.3	-0.3	3.3	0.802
CC(C)(C)CN1CCNC(=O)C1CC(=O)N1CCC(C(=O)N2CCOCC2)CC1 (stereo not drawn)	-2.3	6.2	.	0.0	13.9	-18.5	0.659
CN1CCc2c(sc(N)c2C(=O)O)C1	-2.8	-1.0	9.8%	-0.1	1.9	-12.8	0.67
CN(C)CC/C=C1\c2cc(F)ccc2CSc2ccccc21	1.6	.	-11.7%	0.0	9.3	-7.3	0.692
COc1ccccc1CNC(=O)[C@@H]1CCCN1S(=O)(=O)c1ccccc1F	0.8	0.5	.	1.0	-0.4	5.7	0.656
O=C(CC12CC3CC(CC(C3)C1)C2)N/N=C\c1ccc[nH]1	2.6	0.8	-1.6%	0.5	-20.8	.	.
Cc1sc(NC(=S)Nc2ccc(F)cc2)c(C(N)=O)c1C	-0.8	4.3	.	0.1	-0.5	.	.
COc1ccc(NC(=O)CNC(=O)C2CCCCC2)cc1	1.7	-4.5	.	1.0	2.7	-1.0	0.681
O=P(Cc1ccccn1)(c1ccccc1)c1ccccc1	0.5	-3.4	5.3%	0.0	-2.4	1.4	0.743

Copied from the results shown, 3 compounds:
molecule	HNF4A DNA FP	LANA-H2B inh	Vif TR-FRET	A1 inh	Beta2AR agonist	UCH37 inh	Ecoli growth
O=C(CCC1CCCCC1)Nc1cc(C(F)(F)F)ccc1N1CCOCC1	4.1	-4.1	2.3%	0.7	-3.1	5.0	0.702
CC(=O)Nc1c(NC(C)C)c2ccccc2oc1=O	-1.8	-3.2	-1.1%	2.1	4.7	2.2	0.649
O=C(NC(c1cccnc1)C(F)(F)F)c1cc(COc2ccc3c(c2)CCCC3)on1 (stereo not drawn)	2.1	-1.7	.	-1.4	3.1	-0.7	0.713

(listing goes on)
molecule	HNF4A DNA FP	LANA-H2B inh	Vif TR-FRET	A1 inh	Beta2AR agonist	UCH37 inh	Ecoli growth
Clc1cccc2c1CCN(Cc1nc(-c3cnccn3)no1)C2	-0.8	-365.0	-5.4%	0.7	4.5	3.4	0.71
C/C(=N\NC(=O)c1ccc(OC2CCCC2)cc1)c1ccc(O)cc1	-1.6	-1.1	-10.7%	-0.5	-5.3	.	.
Cc1ccc(C)c(C(=O)COC(=O)CN2C(=O)C3C4C=CC(C4)C3C2=O)c1 (stereo not drawn)	-1.8	-0.4	4.8%	-0.4	-0.9	.	.
Cc1nn(-c2ccccc2)c(C)c1CCC(=O)O	-1.8	-5.6	26.6%	1.5	4.7	-0.8	0.697
COc1cc(C(=O)OCC(=O)NC2CCCC2)cc(OC)c1OC	-1.5	3.6	0.0%	-0.5	-1.9	3.9	0.692
COc1ccc(C)cc1-n1c(N)c(C#N)c(C#N)c1-c1ccc(OC)c(OC)c1OC	1.6	6.9	10.9%	-0.7	1.9	-4.3	0.706
CNC(=O)c1ccc(-n2cccn2)nc1	1.2	1.6	.	0.7	-5.0	2.8	0.684
COc1ccc(OCC(=O)NN2Cc3ccccc3C2=N)cc1	-2.0	0.3	-0.2%	1.3	-5.2	0.4	0.693
Cc1ccc2nc(SCC(=O)Nc3ccc(C(N)=O)cc3)[nH]c2c1	1.4	1.8	-5.1%	0.1	16.3	0.8	0.698
O=C1C2C(c3ccccc3)CC=CC2[C@H](c2ccc(C(F)(F)F)cc2)N1Cc1ccccc1 (stereo partly drawn)	1.5	-5.2	29.5%	-0.9	11.3	1.0	.
CCOC(=O)C1(O)CSc2nc3sc(C(=O)O)c(C)c3c(=O)n21 (stereo not drawn)	-2.6	-3.6	-3.0%	-0.2	4.2	4.5	0.678
COc1ccc(NC(=O)C/C(C)=N/NC(=O)COc2ccc(OC)cc2)cc1	-1.6	1.2	.	-0.1	4.0	.	.
NC(=O)CC(NC(=O)Cc1cccc2ccccc12)c1ccc(N2CCC(N3CCCCC3)CC2)c([N+](=O)[O-])c1 (stereo not drawn)	2.7	2.4	.	0.6	5.3	0.3	0.667
Cc1occc1C(=O)NNC1=CC(=O)CC(C)(C)C1	-1.6	1.9	-0.8%	0.5	-1.6	5.2	0.694
CCOCCCNC(=O)C1CC(=O)N(C2CCCC2)C1 (stereo not drawn)	-0.8	0.8	2.9%	0.0	3.3	1.4	0.677

(cont.)
molecule	HNF4A DNA FP	LANA-H2B inh	Vif TR-FRET	A1 inh	Beta2AR agonist	UCH37 inh	Ecoli growth
CNC(=O)c1nc(C)c(C2(C)CC(c3cccc([N+](=O)[O-])c3)=NO2)s1 (stereo not drawn)	2.0	2.6	18.2%	1.5	-6.9	-2.0	0.715
Cc1ccnc2nc(C(=O)Nc3ccc(N4CCOCC4)cc3)nn12	6.8	1.5	5.2%	-0.1	-5.9	4.9	0.701
COC(=O)c1c(Oc2nc(OC)cc(OC)n2)cccc1Oc1nc(OC)cc(OC)n1	1.1	2.4	23.2%	0.4	-31.6	-0.7	0.626
COc1ccc(OC)c(C2NC(=S)NC3=C2N2CCC3CC2)c1 (stereo not drawn)	-4.5	-1.7	.	1.6	0.4	5.0	0.709
CCOc1ccc(N2C(=O)CC(NCCc3c[nH]c4ccccc34)C2=O)cc1 (stereo not drawn)	0.6	-4.0	1.1%	0.6	-3.2	5.8	0.667
COC(=O)c1ccc(S(=O)(=O)N(C2CCCCC2)C2CCCCC2)n1C	-3.1	-3.2	.	0.6	-0.2	2.2	0.678
CCCC1Cc2nc(Cl)c(C#N)cc2CO1 (stereo not drawn)	-5.3	-3.7	32.2%	0.8	2.3	-5.2	0.71
O=C(CSc1nc2[nH]ncc2c(=O)n1-c1ccccc1)NCCc1ccccc1	-3.0	-0.3	10.7%	-0.6	-1.9	.	.
O=c1c(C/C=C/c2ccccc2)c(O)nc2n1CCCS2	-3.0	-1.9	5.4%	1.1	4.5	3.2	0.686
O=C(Nc1ccccc1[N+](=O)[O-])c1cc(S(=O)(=O)N2CCOCC2)cs1	-1.5	4.6	.	0.5	-1.4	1.7	0.722
Cc1nonc1C1CCCN1C(=O)c1cc(COc2cccc(C(F)(F)F)c2)on1 (stereo not drawn)	3.1	0.6	.	0.1	7.4	2.4	0.711
Cc1ccc(C(=O)CCC(=O)O)cc1	.	0.0	4.0%	-0.7	.	.	.
O=C(CCC(=O)N1CCOc2ccccc21)NCCCc1ccccc1	4.0	2.4	.	-0.2	-4.8	-0.8	0.648
CC1CN(C2CC(C)(C)NC(C)(C)C2)CCC1=O (stereo not drawn)	-2.5	2.0	-1.6%	0.4	-5.4	4.4	0.708
CCN(CC)S(=O)(=O)c1cccc(-c2csc(C)n2)c1	3.3	0.5	-4.8%	-0.2	-1.4	2.1	0.7

(list continues)
molecule	HNF4A DNA FP	LANA-H2B inh	Vif TR-FRET	A1 inh	Beta2AR agonist	UCH37 inh	Ecoli growth
CSCCC(NC(=O)OCc1ccccc1)C(=O)O (stereo not drawn)	-0.2	0.6	.	-0.4	10.9	0.7	0.701
CCOC(=O)c1c(C)c(C(=O)N2CCc3ccccc3C2)c(C)n1CC	3.8	-1.2	3.5%	0.5	-6.5	1.2	0.701
COC(=O)c1ccc(CNC(=O)COC(=O)/C=C/c2cc(OC)c(OC)c(OC)c2)cc1	-0.3	4.1	7.2%	0.3	9.2	-16.7	0.732
C=CCc1ccc(OCC(O)CO)c(OC)c1 (stereo not drawn)	-0.1	1.5	-5.0%	0.5	3.3	1.3	0.639
CCOc1ccc(N2CC(C(=O)NCc3ccco3)CC2=O)cc1 (stereo not drawn)	4.5	4.2	-7.9%	0.8	8.2	4.1	0.694
Cc1ccccc1CN1CCN(C/C=C/c2ccccc2)CC1	-2.0	1.3	17.6%	-2.3	2.8	3.9	0.675
O=C(CSc1nc(-c2ccccc2)cc(=O)[nH]1)Nc1ccccc1	1.9	1.6	-9.9%	0.2	6.5	-0.8	0.668
